Bfl-1 A1 inh = caspase 3/7 activation in MEF A1-2A-BIM cells, primary screen, A1 inhibitor project, cell-based, luminescence, HTS; caspase activation, % (no concentration beside the values); 330,000 compounds, 0.066% hits; Caspase-Glo 3/7 luminescence, 3 h; percent of clofoctol response, vehicle zero;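 active means over half of replicate activation scores above 10%, or exactly half above 10 with the replicate mean above 10; inconclusive means replicate mean below 10 yet half the replicates above 10; inactive means over half of replicates below 10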;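 further: wells of about 30 µL received 50 nL stock; many hits fall short of the cut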
Vif A3G = inhibitors of Vif binding to APOBEC3G peptide, primary screen, biochemical, TR-FRET, GST-Vif 1-94, biotin-A3G peptide, dose response retest (AID 1117319); TR-FRET GST-Vif / biotin-A3G peptide binding; higher % means a stronger effect; test concentration not given here; strong numbers were not always called active; inhibition, %, or IC50 in µM where a hit was titrated; 260,000 compounds, 0.57% hits;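 active means above the screen mean plus three standard deviations and confirmed in dose response; inconclusive means results disagree or hit not tested in dose response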;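 further: Vif residues 1-94 fused to GST binding biotinylated APOBEC3G peptide 110-148; 0% = full assay without inhibitor and 100% = GST in place of GST-Vif; retest series ran down from 100 µM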
E coli growth = E. coli growth inhibition, primary screen, OD600 | 330,000 compounds, 0.21% hits | OD600 absorbance (no concentration beside the values) | AID 1053175, 2014 | Escherichia coli growth, 23 h; hits give low values;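 active means OD600 absorbance below the run mean of sample wells minus 3.6 SD, in any replicate, cut at about 0.56 in these data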;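 further: stock transfer was 300 nL into about 60 µL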
LANA-H2A inh = blockers of LANA interaction with H2A/H2B – biochemical, FP readout, HTS, primary screen; Protein LANA1 (Human herpesvirus 8 type P (isolate GK18)), Q9QR71; cell-free LANA-H2A/H2B peptide, fluorescence polarization; inhibition, % (no concentration beside the values); 320,000 compounds, 0.6% hits; AID 2629, 2010; in the data active means inhibition mostly above about 10%, no sharp cut-off; inactive means mostly below about 6.7%;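 further: stock transfer was 7.5 nL into about 10 µL; 0% = median of vehicle wells and 100% = median of positive control wells; one replicate is shown; the record names a cut of 25% in any replicate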
UCH37 inh = inhibitors of human UCH37 deubiquitinase, primary screen, biochemical, Ub-AMC cleavage, fluorescence; Ubiquitin carboxyl-terminal hydrolase isozyme L5 (Homo sapiens), Q9Y5K5; 330,000 compounds, 0.33% hits; inhibition, % (no concentration beside the values); purified proteasome/UCH37;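 active means mean of two replicates above 20%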;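 further: 0% = compound-free wells with enzyme and 100% = wells lacking proteasome; stock transfer was 100 nL into about 20 µL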
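System: Proteasome-associated human UCH37 deubiquitinase; Input: 0.15 nM proteasome in added enzyme buffer; Also added: Ub-AMC substrate from 1 µM stock; Incubation: 30 min compound-proteasome preincubation then 25 min substrate reaction, room temperature; Detection: fluorescence, ex 355 nm, em 460 nm; Read-out: % inhibition of Ub-AMC cleavage fluorescence; Benchmarks: no-proteasome and no-compound wells.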
HNF4A DNA FP = change in binding of human HNF4A to DNA, primary screen, biochemical, fluorescence polarization, FITC-DNA. 1 h. activity change, % at 10 µM. 360,000 compounds, 0.3% hits. AID 1224865, 2016; in the data active means activity change above about 30%, passing the limit was not always enough;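 further: controls were the assay level and a saturating level of protein; the project sought stronger binding though the title names inhibitors; some compounds called inactive have numbers as strong as hits; positive values seem to mean higher polarization but the record does not say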
Target sequence (P41235 whole entry, looked up): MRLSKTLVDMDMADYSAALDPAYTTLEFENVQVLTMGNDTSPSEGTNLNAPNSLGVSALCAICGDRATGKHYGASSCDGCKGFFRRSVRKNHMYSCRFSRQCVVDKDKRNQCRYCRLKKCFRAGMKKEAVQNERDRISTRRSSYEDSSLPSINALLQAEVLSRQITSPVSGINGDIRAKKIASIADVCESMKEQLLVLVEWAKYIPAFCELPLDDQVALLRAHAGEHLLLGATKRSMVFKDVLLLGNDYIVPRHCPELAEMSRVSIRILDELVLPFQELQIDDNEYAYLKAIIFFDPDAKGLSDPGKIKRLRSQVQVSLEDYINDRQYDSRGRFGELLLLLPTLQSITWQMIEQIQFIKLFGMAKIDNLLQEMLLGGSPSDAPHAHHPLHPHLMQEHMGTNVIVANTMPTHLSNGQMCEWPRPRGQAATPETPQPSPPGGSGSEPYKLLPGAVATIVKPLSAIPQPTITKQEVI
B2AR ag = beta2AR agonists driving receptor internalization, primary screen, cell-based, FAP fluorogen, flow cytometry | Beta-2 adrenergic receptor (Homo sapiens), P07550 | Am2.2-beta2AR cells; reference of the scale not given here | response, % (concentration not given with the values) | 340,000 compounds, 0.43% hits | AID 504454, 2011;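 active means response above a set limit, near 3 SD of response in nonfluorescent compounds, cut at about 42% in these data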;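 further: stock transfer was 100 nL into about 11 µL; a reference agonist was the positive control; negative values mostly stem from fluorescent compounds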
Target sequence (P07550 whole entry, looked up): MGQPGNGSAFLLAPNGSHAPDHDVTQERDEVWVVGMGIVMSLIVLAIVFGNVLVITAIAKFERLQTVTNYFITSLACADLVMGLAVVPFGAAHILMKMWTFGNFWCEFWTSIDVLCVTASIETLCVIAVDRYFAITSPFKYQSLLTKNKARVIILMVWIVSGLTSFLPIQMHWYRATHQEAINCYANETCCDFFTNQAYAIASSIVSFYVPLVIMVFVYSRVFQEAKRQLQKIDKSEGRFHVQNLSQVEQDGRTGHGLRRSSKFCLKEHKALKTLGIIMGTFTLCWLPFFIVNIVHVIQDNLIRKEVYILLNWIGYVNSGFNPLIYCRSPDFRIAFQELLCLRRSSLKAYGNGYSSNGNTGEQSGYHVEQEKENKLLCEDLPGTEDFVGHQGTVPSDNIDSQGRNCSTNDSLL
* = called active by the depositor; ? = inconclusive; / = not tested or not shown; & = joins results of further samples.

SMILES	Bfl-1 A1 inh	Vif A3G	E coli growth	LANA-H2A inh	UCH37 inh	HNF4A DNA FP	B2AR ag
O=C1[C@@H]2[C@H](Cc3ccc(O)cc3)N[C@]3(C(=O)Nc4ccccc43)[C@@H]2C(=O)N1c1ccc(F)cc1	-0.1	4%	0.61	-1.2	1.3	-0.4	-2
Cc1ccc(NC(=O)CCc2nc(-c3cccs3)no2)c(Br)c1	0.2	1%	0.66	-1.8	0.2	8.7	3
O=C(C1CCCC1)N1CCN(S(=O)(=O)c2ccc(F)cc2)CC1	1.3	/	0.69	-1.7	3.7	0.5	-3
Cc1cccc2c1N(CCOc1ccc(C(C)(C)C)cc1)C(=O)C2=O	1.9	/	0.7	3.4	5.0	-3.0	29
C/C=C/COc1nc2c(c(=O)n(C)c(=O)n2C)n1C	1.3	10%	0.73	5.8	0.5	1.4	0
c1ccc(-c2nc(NCC3CCCO3)c3ccccc3n2)nc1 (stereo not given)	-0.3	6%	0.67	0.6	-3.2	2.3	-12
O=C(NCCC(c1ccccc1)c1ccccc1)c1cnccn1	1.2	-2%	0.72	3.3	6.3	2.6	-9
COc1ccc(C)cc1N(CC(=O)N1CCCC1)S(=O)(=O)c1ccccc1	-0.6	0%	0.65	1.0	3.6	0.3	-2
CCOC(=O)c1sc(NC(=O)c2ccc(Cl)s2)cc1C	-5.9	-11%	0.75	-3.8	-112	3.2	-1
CCOC(=O)c1sc(NC(=O)C(CC)Sc2nnc3c4ccccc4n(C(C)C)c3n2)nc1C (stereo not given)	/	-4%	/	/	/	7.2	-5
CC(C)N(C(=O)COC(=O)c1cncc(Br)c1)C(C)C	0.2	1%	0.73	-0.9	1.9	1.7	-1
O=C1CC(C(=O)N(CC2CCCO2)C(C(=O)NC2CCCCC2)c2ccncc2)CS1 (stereo not given)	0.8	?	0.7	-0.8	-0.1	1.7	2

Complete entries, looked up by structure. Order of screens: Bfl-1 A1 inh | Vif A3G | E coli growth | LANA-H2A inh | UCH37 inh | HNF4A DNA FP | B2AR ag
Record of O=C(NCCC(c1ccccc1)c1ccccc1)c1cnccn1 → 1.2 | -2% | 0.72 | 3.3 | 6.3 | 2.6 | -9
Record of Cc1cccc2c1N(CCOc1ccc(C(C)(C)C)cc1)C(=O)C2=O → 1.9 | / | 0.7 | 3.4 | 5.0 | -3.0 | 29

Carrying on.
SMILES	Bfl-1 A1 inh	Vif A3G	E coli growth	LANA-H2A inh	UCH37 inh	HNF4A DNA FP	B2AR ag
COCCCn1c(C(C)C)nc2oc3cc(OC)ccc3c(=O)c2c1=O	-1.1	8%	0.67	-3.0	2.1	-1.8	5
CCCCC(CC(O)COCCC)c1n[nH]c(=S)n1-c1ccccc1 (stereo not given)	0.6	/	0.68	-3.8	2.1	4.0	5
CCC(C)c1ccc(S(=O)(=O)N2CCN(S(=O)(=O)c3ccc(NC(C)=O)cc3)CC2)cc1 (stereo not given)	0.4	/	0.65	-0.1	0.4	-3.9	5
C#CCN1C(=O)C2(OCCO2)c2ccccc21	-0.4	/	0.72	-8.4	3.1	0.6	1
Cc1ccc(/C=C/C(=O)Nc2cc(=O)n(C)c(=O)n2C)o1	0.1	/	0.68	-0.5	-7.5	1.3	-3
CCOC(=O)c1ccc(NC(=O)CCc2nc(-c3cccc(C)c3)no2)cc1	-1.0	?	0.72	4.0	1.9	0.2	22
COC(=O)[C@@]1(Cc2ccccc2)[C@H]2C(=O)N(Cc3ccccc3)C(=O)[C@H]2[C@H]2CN=C(SCc3ccc(C#N)cc3)N21	/	-3%	0.76	/	3.8	3.8	3
COc1ccc2c(c1)O[C@H](c1ccc3c(c1)OCO3)[C@@H](O)C2=O	1.1	/	/	0.2	3.2	3.5	-3
O=S(=O)(/N=C(/Nc1cc(N2CCOCC2)ncn1)c1ccccc1)c1ccccc1	-0.4	7%	/	-3.6	/	3.1	/
Cc1nn(-c2ncc(C(F)(F)F)cc2Cl)c(=O)n1-c1cccc(F)c1	-0.9	-8%	0.66	11	0.9	1.1	-9
O=C(c1cccc(Cl)c1)N1CCN(CCCc2ccccc2)CC1	0.3	-4%	0.67	-4.6	5.2	-34	3
Cc1ccc(-n2nc3c(c2NC(=O)c2c(-c4ccccc4Cl)noc2C)CSC3)cc1	2.0	4%	0.65	2.1	4.9	/	/

4 structures from above, ordered by SMILES length, smallest number first.
SMILES	Bfl-1 A1 inh	Vif A3G	E coli growth	LANA-H2A inh	UCH37 inh	HNF4A DNA FP	B2AR ag
O=C(c1cccc(Cl)c1)N1CCN(CCCc2ccccc2)CC1	0.3	-4%	0.67	-4.6	5.2	-34	3
COCCCn1c(C(C)C)nc2oc3cc(OC)ccc3c(=O)c2c1=O	-1.1	8%	0.67	-3.0	2.1	-1.8	5
Cc1nn(-c2ncc(C(F)(F)F)cc2Cl)c(=O)n1-c1cccc(F)c1	-0.9	-8%	0.66	11	0.9	1.1	-9
O=S(=O)(/N=C(/Nc1cc(N2CCOCC2)ncn1)c1ccccc1)c1ccccc1	-0.4	7%	/	-3.6	/	3.1	/

Carrying on:
SMILES	Bfl-1 A1 inh	Vif A3G	E coli growth	LANA-H2A inh	UCH37 inh	HNF4A DNA FP	B2AR ag
Cc1coc2c(C)c3oc(=O)c4c(c3cc12)CCCC4	-0.7	/	0.71	-1.7	-15	-2.7	1
CCOC(=O)c1cnc(SC)nc1N1CCCC1	1.3	14%	0.67	-1.2	-0.3	-1.1	-7
Cn1cc(C[C@H](NC(=O)OC(C)(C)C)C(=O)N[C@H](CO)Cc2ccccc2)c2ccccc21	-2.4	/	/	-4.1	-0.1	-1.2	-3
Cc1cc(Cl)ccc1N1C(=O)CC(SCCC(=O)O)C1=O (stereo not given)	0.3	?	0.72	-2.4	5.4	-2.7	2
COCCCNc1nc(CC(C)C)nc2c1nnn2Cc1ccccc1	-0.2	-5%	0.67	1.1	0.3	6.3	-8
CC(C)Oc1ccc(C2CC(=O)NC3=C2C(=O)CCC3)cc1 (stereo not given)	0.1	0%	0.66	-2.5	1.1	-2.7	-1
Cc1ccc(O)c(C(=O)c2cnc3c(c2)CN(CCC(C)C)C(=O)N3)c1	0.0	2%	0.71	-0.8	-1.4	4.4	1
CC(C)(CO)NS(=O)(=O)c1ccc2c(c1)oc(=O)c1cc(S(=O)(=O)NC(C)(C)CO)ccc12	-0.3	2%&-3%	0.71	-6.3	0.3	-3.4	2
O=C(Nc1cccc(C(=O)Nc2ccc(F)cc2F)c1)c1ccccc1	0.8	/	0.67	-1.7	0.9	1.4	6
O=C(C1CC1)N1CCc2cc(S(=O)(=O)NCc3ccccc3)ccc21	-2.6	/	0.7	-2.0	1.5	-1.2	-10
COc1ccc(Nc2cc3n(c(=O)n2)CCc2cc(OC)c(OC)cc2-3)cc1	0.4	2%	0.66	-1.7	-92	-0.2	13
COc1ccccc1/C=C1\SC(=S)N(CCC(=O)NCCCN2CCOCC2)C1=O	0.2	/	0.64	-2.2	6.4	5.4	0
COc1ccccc1/C=C/C(=O)OCC(=O)Nc1c(F)cccc1F	-0.6	-5%	0.65	4.3	-26	3.6	3
CCNC(=O)CON=C1c2ccccc2-c2ccccc21	0.5	-11%	0.72	-3.1	5.6	-4.3	-1
Cc1cc(NC(=O)CSc2ncnc3c2cnn3-c2cccc(Cl)c2)no1	-3.6	-2%	0.71	0.7	5.4	0.6	5
COC(=O)C1=C(C)N(Cc2ccc(C)cc2)C(=O)C1	0.6	?	0.63	1.4	0.8	-5.7	10
N#C/C(=N\Nc1ccc([N+](=O)[O-])cc1)C(N)=S	-8.8	-5%	/	-1.1	/	30	19
Cc1ccc2c(c1)nnn2C1CCN(S(=O)(=O)c2ccc(C(=O)O)cc2)CC1	0.3	-1%	0.69	126*	2.5	-4.4	-6
Cn1nc(C(=O)NNc2c(F)c(F)cc(F)c2F)c2ccccc2c1=O	1.1	/	0.68	-0.9	0.9	1.6	1
NS(=O)(=O)c1ccc2nc(NC(=O)c3ccc(Br)o3)sc2c1	-1.9	-32%	0.7	0.5	1.5	6.8	-2
Cc1cc(NC(=O)CSc2nc3ccsc3c(=O)n2Cc2ccccn2)n[nH]1	-0.2	?	0.66	2.1	0.9	-3.0	-9
O=C(c1ccccc1)C1CCN(C(=O)C2CCC(=O)N(Cc3ccccc3F)C2)CC1 (stereo not given)	-0.4	1%	0.7	8.4	4.5	-3.2	0
O=C(NCCC1=CCCCC1)c1cnccn1	0.0	-6%	0.73	3.5	2.0	3.9	8
Cc1ccc(NC2CCCN(C(=O)c3ccc(-n4ccnc4)cc3)C2)cc1C (stereo not given)	-0.2	8%	0.69	0.1	4.5	1.1	-4
CC(/C=N/NC(=S)Nc1cccc(S(=O)(=O)N(C)C)c1)c1ccccc1 (stereo not given)	-0.4	3%	/	-2.5	/	-0.6	3
O=C1CC(=O)N2N=C(c3ccc([N+](=O)[O-])cc3)SC2=N1	-1.6	/	0.68	-0.8	3.6	-11	6
CCCC1=[N+](CC)CCn2c(C)ccc21	0.3	-4%	0.71	-4.7	9.7	-3.3	-1
COc1ccc(Cl)cc1NC(=O)CN(C)CC(=O)N(CC(C)C)c1c(N)n(CC(C)C)c(=O)[nH]c1=O	-1.1	/	0.71	-1.0	0.4	-2.1	-8
CC(C)[C@H](NC(=O)C1CC(=O)N(c2ccc3c(c2)OCCO3)C1)C(=O)NC1CCCC1 (stereo not given in full)	0.4	0%	0.66	1.5	2.1	6.6	4
CCOC(=O)c1ccc(NC(=S)NCCc2ccccc2F)cc1	0.9	10%	0.68	-3.3	1.4	8.1	10
O=C(c1ccco1)N1CCN(Cc2ccc(Cl)cc2)CC1	-0.1	6%	0.76	-0.2	2.0	3.2	3
CCCn1c(=O)c(C(=O)NNS(=O)(=O)c2ccc(C)cc2)c(O)c2ccccc21	0.2	/	0.7	-0.6	-0.9	-0.6	4
COc1ccc2cc(C[C@@H]3CC[C@@H](CNC(N)=O)O3)ccc2c1	/	4%	0.68	/	3.9	2.6	7
CCn1c(NCc2ccc(N(C)C)cc2)nc2ccccc21	0.3	20%	0.69	-2.5	1.7	0.6	-3
CC(=O)N/C(=C/c1ccc2c(c1)OCO2)C(=O)NC(Cc1ccccc1)C(=O)O (stereo not given)	0.9	/	0.62	0.4	4.3	-0.7	-1
COc1cccc(-n2c(=O)n(Cc3ccccc3)c(=O)c3[nH]cnc32)c1	1.3	/	0.64	2.2	2.2	-0.7	-1
CC(C)NC(=O)c1onc(CSc2ccc(F)c(F)c2)c1C(=O)NC(C)C	-0.2	/	0.7	1.9	4.7	1.2	-3
CC(OC(=O)Cn1[nH]c(=O)c2ccccc2c1=O)C(=O)Nc1ccc(F)cc1 (stereo not given)	0.2	3%	0.71	-0.3	6.0	-1.8	-3
CC1CCN(S(=O)(=O)c2ccc3[nH]c(=O)ccc3c2)CC1	-1.0	-9%	0.73	-1.3	0.5	0.7	-9
CC1CC(=O)Nc2ccccc2N1C(=O)Cn1cnc2ccc(Br)cc2c1=O (stereo not given)	/	2%	0.67	/	-0.1	2.5	-3
CCN(C(=S)Nc1cccnc1)c1cccc2ccccc12	0.0	0%	0.64	3.0	-9.1	-3.5	8
Cc1cc(NC(=O)c2cccc(S(=O)(=O)N3CC(c4ccccc4)CC3=O)c2)no1 (stereo not given)	-0.5	-2%	0.76	-0.9	6.1	7.5	0
CCCC(O)(CCN1CCCCC1)c1ccc(OCC)cc1 (stereo not given)	/	5%	0.77	/	5.2	-1.7	0

Screening results deposited in PubChem BioAssay by several laboratories.
